HPDE-C7K KRASV12 = cytotoxicity in KRAS-transformed pancreatic duct cells, primary screen, cell-based, fluorescence, HTS (AID 431) | HPDE-C7K KRASV12 cells, Alamar Blue viability, 48 h; higher % means a stronger effect | 63,000 compounds, 1.7% hits | cytotoxicity, % at 10 µM, or EC50 in µM where a hit was titrated;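 active means compounds whose percent cytotoxicity in the single-dose primary screen, scaled between solvent and toxic-drug controls, exceeds 50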;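 further: 0% = DMSO solvent wells and 100% = doxorubicin-treated wells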
Spn PMK inh = S. pneumoniae PMK inhibitors, primary screen, biochemical, mevalonate pathway, pilot trial included | phosphomevalonate kinase (Streptococcus pneumoniae D39) | purified PMK, PK/LDH-coupled NADH absorbance 340 nm | inhibition, % at 10 µM | 65,000 compounds, 0.49% hits;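 active means top-ranked compounds by inhibition in the single 10 µM screen, taking a fixed number of the strongest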;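 further: 0% = full reaction with DMSO carrier and 100% = background rate without enzyme reaction; no value below 0 was filed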
HPDE-C7 cytotoxicity = cytotoxicity in HPDE-C7 cells, cell-based, fluorescence, HTS (AID 430) | HPDE-C7 pancreatic duct cells viability, fluorescence; higher % means a stronger effect | 63,000 compounds, 1.8% hits | cytotoxicity, % at 10 µM; hits with a dose series show EC50 in µM; in the data active means cytotoxicity above about 50%;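 further: cells exposed to compound for 48 hours before viability readout; 0% = vehicle and 100% = reference cytotoxic drug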
LYP phosphatase = LYP phosphatase inhibitors, primary screen, biochemical, DiFMUP fluorescence, recombinant catalytic domain, 10 µM (AID 606). Tyrosine-protein phosphatase non-receptor type 22 (Homo sapiens). recombinant LYP catalytic domain, DiFMUP fluorescence; higher % means a stronger effect. inhibition, % at 10 µM; hits with a dose series show IC50 in µM. 52,000 tested, under 10 active;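 active means IC50 under 40 µM in the dose-response test; inactive means IC50 of 40 µM or more, or never dose-tested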
DPM-DC inhibit = S. pneumoniae DPM-DC inhibitors, primary screen, biochemical, PK/LDH-coupled NADH fluorescence. purified DPM-DC. calls only at 10 µM. 65,000 compounds, 0.49% hits;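 active means the 320 compounds with the highest percent inhibition in the single-dose primary screen, excluding strongly autofluorescent ones, cut at about 32% in these data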;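 further: kinetic rate of NADH fluorescence loss reporting ADP formed by the decarboxylase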
Spn PMK inh pilot replicates = recorded beside Spn PMK inh, whose call it bears; inhibition, %; measured here: pilot screen replicates
DPM-DC inhibit pilot screen % = second read-out of DPM-DC inhibit, no call of its own (marks repeat the call); inhibition, %; measured here: pilot screen trials
Active calls of the source: *; i = inactive; nt = not tested or not shown.

SMILES | HPDE-C7K KRASV12 | Spn PMK inh | Spn PMK inh pilot replicates | HPDE-C7 cytotoxicity | LYP phosphatase | DPM-DC inhibit | DPM-DC inhibit pilot screen %
CCCCc1n[nH]c2c1C(=O)CC(C)(C)C2 | 1.2% | 15.0 | 2.5 | -28.7% | 17.1% | i | 0.5
COc1ccccc1-c1nc(SCc2ccccn2)n[nH]1 | 10.4% | 8.0 | 0.5 | 11.0% | 3.8% | i | 2.0
O=C(CN1CCN(c2ncccn2)CC1)N(Cc1ccccc1)c1ccc(F)cc1 | -11.5% | 7.0 | nt | -16.7% | -5.8% | i | nt
O=C(NCc1cccnc1)NC1(C(F)(F)F)Oc2ccc(Cl)cc2O1 (stereo unspecified) | 9.3% | 3.0 | nt | 29.5% | -8.9% | i | nt
O=C(CCC1CCCCC1)Nc1ncn[nH]1 | -13.1% | 3.0 | nt | 3.2% | 10.8% | i | nt
O=C(Nc1cnn(C23CC4CC(CC(C4)C2)C3)c1)c1cnn2c(C(F)(F)F)cc(-c3ccco3)nc12 | 44.9% | 6.0 | 2.5 | 47.9% | 0.7% | i | 0.5
COc1cccc(C(=O)N2CCN(Cc3ccccn3)CC2)c1OC | 13.1% | 0.0 | nt | 4.6% | nt | i | nt
COc1cccc(C(=O)N2CCN(C3CCC(c4ccccc4)CC3)CC2)c1OC (stereo unspecified) | 10.3% | 4.0 | nt | 6.5% | 12.3% | i | nt
c1ccc(-c2n[nH]c(-c3ccccn3)n2)nc1 | -4.7% | 9.0 | nt | 6.2% | 4.7% | i | nt
NCCCC(=O)O | nt | nt | nt | nt | 10.8% | nt | nt
O=C(O)c1ccccc1S | -3.2% | 3.0 | 7.0 | 1.5% | 13.4% | i | 4.0
Cc1ccc(-n2ncc3c2ncn2c(C)nnc32)cc1C | -14.0% | 9.0 | nt | -5.1% | -0.5% | i | nt
CCOc1ccc2nc(N3CCCC(C(=O)N4CCN(CC)CC4)C3)sc2c1 (stereo unspecified) | 3.1% | 7.0 | nt | -14.8% | 2.9% | i | nt
O=c1[nH]c2ccccc2n1CCCN1CCN(C(c2ccccc2)c2ccccc2)CC1 | 31.4% | 7.0 | 3.0 | -7.2% | 17.6% | i | 2.5
Brc1ccccc1OCCCN1CCOCC1 | 16.7% | 11.0 | nt | 0.9% | nt | i | nt
COc1ccc(OC)c(S(=O)(=O)Nc2ccc(O)c(Sc3ncn[nH]3)c2)c1 | -15.0% | 3.0 | nt | -8.6% | 8.5% | i | nt

Filtered by structure, the compounds so far containing four or more nitrogen atoms
SMILES | HPDE-C7K KRASV12 | Spn PMK inh | Spn PMK inh pilot replicates | HPDE-C7 cytotoxicity | LYP phosphatase | DPM-DC inhibit | DPM-DC inhibit pilot screen %
COc1ccccc1-c1nc(SCc2ccccn2)n[nH]1 | 10.4% | 8.0 | 0.5 | 11.0% | 3.8% | i | 2.0
O=C(CN1CCN(c2ncccn2)CC1)N(Cc1ccccc1)c1ccc(F)cc1 | -11.5% | 7.0 | nt | -16.7% | -5.8% | i | nt
O=C(CCC1CCCCC1)Nc1ncn[nH]1 | -13.1% | 3.0 | nt | 3.2% | 10.8% | i | nt
O=C(Nc1cnn(C23CC4CC(CC(C4)C2)C3)c1)c1cnn2c(C(F)(F)F)cc(-c3ccco3)nc12 | 44.9% | 6.0 | 2.5 | 47.9% | 0.7% | i | 0.5
c1ccc(-c2n[nH]c(-c3ccccn3)n2)nc1 | -4.7% | 9.0 | nt | 6.2% | 4.7% | i | nt
Cc1ccc(-n2ncc3c2ncn2c(C)nnc32)cc1C | -14.0% | 9.0 | nt | -5.1% | -0.5% | i | nt
CCOc1ccc2nc(N3CCCC(C(=O)N4CCN(CC)CC4)C3)sc2c1 (stereo unspecified) | 3.1% | 7.0 | nt | -14.8% | 2.9% | i | nt
O=c1[nH]c2ccccc2n1CCCN1CCN(C(c2ccccc2)c2ccccc2)CC1 | 31.4% | 7.0 | 3.0 | -7.2% | 17.6% | i | 2.5
COc1ccc(OC)c(S(=O)(=O)Nc2ccc(O)c(Sc3ncn[nH]3)c2)c1 | -15.0% | 3.0 | nt | -8.6% | 8.5% | i | nt

A portion of the library (hit frequency here may not be typical).
